VDR inhibitor – Inhibitors of the vitamin D receptor (VDR): qHTS; Vitamin D3 receptor (Homo sapiens), P11473; VDR-SRC2-3 peptide fluorescence polarization, 2 h; Potency, µM, for inactives: max response, negative = inhibition, most hits filed as inhibitors; actives 0.93% (n = 400,000); active means well fitted inhibition curve with a large enough effect; inconclusive means small, poorly fitted or top-dose-only effect, or another doubt; inactive means no such curve, though single readings can be large or run the other way; further: series mostly up to about 120 µM
Target sequence (P11473 whole entry, looked up): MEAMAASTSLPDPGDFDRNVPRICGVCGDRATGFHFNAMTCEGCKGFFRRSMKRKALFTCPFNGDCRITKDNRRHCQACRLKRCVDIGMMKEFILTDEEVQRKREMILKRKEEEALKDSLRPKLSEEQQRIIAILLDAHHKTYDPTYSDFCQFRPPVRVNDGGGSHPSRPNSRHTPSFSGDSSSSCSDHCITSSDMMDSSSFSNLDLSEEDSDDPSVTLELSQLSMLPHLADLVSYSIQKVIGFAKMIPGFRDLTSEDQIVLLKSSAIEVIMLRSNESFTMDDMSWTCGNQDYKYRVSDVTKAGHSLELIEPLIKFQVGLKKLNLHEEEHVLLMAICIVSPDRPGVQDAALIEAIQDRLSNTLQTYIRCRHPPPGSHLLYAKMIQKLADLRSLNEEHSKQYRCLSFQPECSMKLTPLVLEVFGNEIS
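FP read-out; VDR + SRC2-3 coactivator peptide; 23 nl compound by pintool; 2 h RT incubation; reagents held at 4 deg C, protected from light.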
* marks the source's active call; other numbers are inactive results; ? = inconclusive; & = joins results of further samples. On the % scale 0 is the no-effect control and ±100 the full control effect; potency means the concentration at half of the fitted maximal effect. These rows are one share of the data. The share of hits here may be higher or lower than overall.

SMILES	VDR inhibitor
CC1OC(OC2C(CO)OC(OCC3OC(OC(=O)[C@@]45CCC(C)(C)C[C@@H]4C4=CC[C@@H]6[C@@]7(C)CCC(OC8OCC(O)C(O)C8OC8OC(C)C(O)C(O)C8O)[C@@](C)(CO)C7CC[C@@]6(C)[C@]4(C)CC5)C(O)C(O)C3O)C(O)C2O)C(O)C(O)C1O (stereo not given in full)	-7%
CCOC(=O)c1ccc(NC(=O)C2COc3ccccc3O2)cc1 (stereo not given)	-3%
CC(OC(=O)CN1C(=O)NC2(CCCC2)C1=O)C(=O)Nc1cccc(Cl)c1 (stereo not given)	-9%
COc1ccc(-c2cc3c(nn2)-c2ccccc2C3=O)cc1	79µM*
COc1cc2c(cc1OC)-c1cc(NC3CC3)nc(=O)n1CC2	9%
Nc1ncnc(Nc2cc(Cl)cc(Cl)c2)c1[N+](=O)[O-]	?
Clc1ccc(C2=NCCn3nc4ccccc4c32)cc1	-3%
CN(Cc1ccccc1)Cc1nc2c([nH]1)c(=O)[nH]c(=O)n2C	0%
CNCC(O)Cn1c(C(F)(F)F)nc2ccccc21 (stereo not given)	-9%
CC(=O)N(C1CC(C)C(C#N)(C#N)C1(C#N)C#N)N(C)C (stereo not given)	35µM*
CN1CCC(=O)N(C(CSc2ccc(Br)cc2)c2ccccc2)CC1 (stereo not given)	-9%
CCN(CC)CCCNC(=O)CNC(=S)N(CCCN1CCOCC1)Cc1cccs1	-3%
Cc1cccc(NC(=O)C2CC(=O)OC23CCCC3)c1 (stereo not given)	4%
N#C/C(=C(/O)COC(=O)CCc1ccc(S(=O)(=O)N2CCOCC2)cc1)c1nc2ccccc2[nH]1	6%
CN(Cc1ccccc1)C(=O)CN1C(=O)CSc2ccc(S(=O)(=O)N3CCOCC3)cc21	4%
CSc1ccc(/C=N/N2CCN(c3ccccc3)CC2)cc1	-3%
CC(=O)Nc1ccc(S(=O)(=O)N2CCC(C(N)=O)(N3CCCCC3)CC2)cc1	6%
O=C(CN1C(=O)NC2(CCCCCC2)C1=O)NCCc1ccccc1	4%
Cc1cc(C)c2ccc(/C=N/O)nc2c1O	-6%
CCCCNC(=O)CCn1nc(-c2ccc(Cl)cc2)c2ccccc2c1=O	-12%&-8%
Cc1c2cnn(-c3ccccc3)c(=O)c2c(C)n1CCCC(=O)Nc1cccc(F)c1	13%
CN(C[C@H](Cc1ccccc1)N(C[C@H](c1ccccc1)N(CCc1ccccc1)N=O)N=O)N=O	-10%
COc1cc(/C=C/C(=O)OCC(=O)Nc2ccccc2Cl)cc(OC)c1OC	7%
COCCCN1C(=O)c2ccc(C(=O)NCCc3ccccc3)cc2C1=O	-2%
CC(Oc1ccc(Cl)cc1Cl)c1nc(-c2ccc(NC(=O)c3ccccn3)cc2)no1 (stereo not given)	-8%
Cc1ccc(O)c(/C=N/NC(=O)Cc2ccc(Cl)cc2)c1	-10%
COc1ccccc1N1CCN(C(=O)C2CC2)CC1	9%
CCc1nn2c(=O)c(S(=O)(=O)Nc3ccc(Br)cc3F)c(C)nc2s1	0%
COc1ccc(Cl)cc1C(=O)O/N=C(\N)c1ccncc1	1%
CCN1CCN(c2nc(N(C)c3ccccc3)nc(N)c2[N+](=O)[O-])CC1	23%
CCOc1ccc(C(=O)NCCn2cc(SCC(=O)Nc3ccccc3)c3ccccc32)cc1	4%
OC1(c2ccc(OC(F)F)cc2)CSC(=Nc2cccnc2)N1C1CC1 (stereo not given)	5%
CC(C)c1ccc(NC(=O)N2CCCC2C(=O)Nc2ccc(-n3cnnn3)cc2)cc1 (stereo not given)	7%
COC(=O)CCCc1nc2ccccc2s1	-11%
CC(=O)Nc1cc(C)nn1-c1nc(C)cc(C)n1	-16%
Cc1ccc(C(=O)O/N=C(\N)c2ccccn2)c(C)c1	-10%
CCNC(=O)N(CC)C[C@H]1N[C@@](C)(C(=O)OC)[C@H]2C(=O)N(Cc3ccccc3)C(=O)[C@@H]12	-8%
Cc1ccc2cc(/C=N/Nc3nc4ccccc4[nH]3)c(Cl)nc2c1	17%
Cc1ccc2scc(N3CCC(C)CC3)c(=O)c2c1	3%
O=C1c2ccccc2C(O)N1Cc1cccs1 (stereo not given)	30%
COc1ccc(Cl)cc1NC(=O)c1cc(C)nc2c1c(C)nn2-c1ccccc1	9%
COc1ccccc1Nc1nc(-c2sc(NC(=O)CC(C)C)nc2C)cs1	?
CN(CC(=O)Nc1ccc(F)cc1)C(=O)COC(=O)c1cccc(N(C)C)c1	6%
Cc1[nH]nc2c1C(c1ccc(-c3ccc(Cl)cc3)o1)C(C#N)=C(N)O2 (stereo not given)	-16%
C[C@@H]1Nc2ccc(Cl)cc2S(=O)(=O)N1	-1%
CCOc1ccc(CCNC(=O)Cn2nc(C)c3c(C)n(-c4ccccc4)nc3c2=O)cc1	-3%
Cc1cccc2c1N1C(=O)c3c(C(=O)O)cccc3C1CC2C (stereo not given)	-8%
CC(C)C(=O)N1CCC2(CC1)Oc1ccc(F)cc1C(=O)C21CC(c2ccccc2)=NO1 (stereo not given)	0%
O=C(Nc1ccccc1F)c1ccc(C(=O)c2ccccc2)cc1	-2%
CCOc1ccccc1NC(=O)CSc1nc2c(oc3ccccc32)c(=O)n1-c1ccc(C)c(C)c1	6%
Fc1ccc(-c2ccc(-c3nn4c(-c5ccco5)nnc4s3)o2)cc1	-5%
CCOC(=O)c1c(NC(C)=O)sc2c(O)c(CN3CCN(CC)CC3)ccc12	13%
O=C(Nc1ccccc1C(=O)OCc1cc(=O)n2ccsc2n1)c1ccc(Cl)cc1	7%
O=C(Nc1ccc(F)cc1)C1CCCN1S(=O)(=O)c1cccc2nsnc12 (stereo not given)	-15%
CO[C@@H](CCO)C[C@H]1O[C@H](C(=O)OC(C)C)CC[C@@H]1C	2%
CCCc1c(C(=O)OCC)sc(N)c1C#N	-11%
Cc1ccc(NC(=O)Cn2nc3c(cc2=O)CCCC3)cc1Cl	16%
C/C(CC(=O)Nc1ccc(C)c(Cl)c1)=N\NC(=O)c1ccccn1	11%
COc1ccc(C(=O)NC(=S)NCc2cccnc2)cc1[N+](=O)[O-]	?
COc1ccc2[nH]c(=O)c(CNc3ccc(C)cc3C)cc2c1	8%

Structures shown so far that have bromine (2):
SMILES	VDR inhibitor
CN1CCC(=O)N(C(CSc2ccc(Br)cc2)c2ccccc2)CC1 (stereo not given)	-9%
CCc1nn2c(=O)c(S(=O)(=O)Nc3ccc(Br)cc3F)c(C)nc2s1	0%

The list continues.
SMILES	VDR inhibitor
CCOc1ccccc1C(=O)N(Cc1cc(OC)c(OC)c(OC)c1)C1CCS(=O)(=O)C1 (stereo not given)	1%
Cc1cc(C)n2nc(C(=O)OCC(=O)Nc3ccc4c(c3)OC(F)(F)O4)nc2n1	10%
CCc1ccc(NC(=O)N(Cc2c[nH]c3ccccc23)C2CCCCCC2)cc1	-10%
COc1ccc(CC(=O)NNC(=O)[C@@H]2CCCC[C@@H]2C(=O)O)cc1	16%
COc1ccc(C(C)=O)cc1CSc1nc2ccccc2o1	-2%
COc1cccc(C(=O)N(c2ccc(C)cc2)C2C=CS(=O)(=O)C2)c1 (stereo not given)	2%
Cc1ccc(NC(=O)/C=C/c2cccs2)c([N+](=O)[O-])c1	-9%
CCOc1ccc(N2CC(O)=C(c3nc4ccccc4c(=O)[nH]3)C2=N)cc1	1%
CCC(C)(C(=O)NC1CCCC1)N(Cc1cccs1)C(=O)c1ccccn1 (stereo not given)	-9%
CCOC(=O)c1ccccc1NC(=O)c1cccnc1	-1%
O=C(O)c1cccc(COc2ccccc2Cl)c1	5%
COc1ccc(CNC(=O)Cc2ccc(NC(=O)N3CCSc4ncccc43)cc2)cc1	11%
CC1CCC(NC(=O)COC(=O)C2CC3CCCC(C2)C3=O)CC1 (stereo not given)	2%
O=C(c1ccc(Br)o1)N(Cc1ccccc1)c1ccccn1	5%
CC(=O)N1c2ccc(S(=O)(=O)NCCC(=O)N(C)Cc3ccccc3)cc2CC1C (stereo not given)	1%&6%
N/C(COc1ncn(-c2ccccc2)n1)=N\S(=O)(=O)c1ccc(Cl)cc1Cl	2%
Cc1occc1-c1nnc(SCC(=O)N2CCCCC2)o1	22%
Cc1ccc(C(=O)NCC(c2ccco2)S(=O)(=O)c2ccc(Cl)cc2)cc1C (stereo not given)	0%
O=C(C1=C[C@@H](C2CCCCC2)C[C@@H](OCCCCO)O1)N1CCOCC1	-12%
Cc1ccc(S(=O)(=O)N(CC(=O)NCc2cccs2)c2ccccc2)cc1	3%
Cc1ccc(NC(=O)CCN2C(=O)c3ccccc3S2(=O)=O)cc1F	-19%
O=C1C(=Nc2cccc(Cl)c2)CC(c2ccc(Cl)cc2)N1c1cccc(Cl)c1 (stereo not given)	-5%
CC1=C(C)/C(=N\OS(=O)(=O)c2ccccc2)C=CC1=O	35µM*
N#Cc1ccccc1Sc1ccccc1N	2%
O=C(Nc1ccc2c(c1)OCO2)c1sc2cc(Cl)ccc2c1Cl	0%
S=c1[nH]c2ccccc2c2ccccc12	?
CCOC(=O)OC(C)OC1=C(C(=O)Nc2ccccn2)N(C)S(=O)(=O)c2ccccc21 (stereo not given)	2%
NS(=O)(=O)Nc1cccc2cccnc12	-16%
CCc1cc(C(=O)Nc2ccc(S(=O)(=O)NC3=NCCCCC3)cc2)sc1C	-2%
CCOC(=O)c1[nH]c2c(c1C)C(=O)CC(c1ccco1)C2 (stereo not given)	-5%
CCOc1ccccc1NC(=O)CNS(=O)(=O)c1ccc2nc(C)sc2c1	1%
CC(C(=O)OCC(=O)Nc1ccc2c(c1)OCO2)N1C(=O)c2ccccc2C1=O (stereo not given)	1%
O=C(CN1CCN(c2ccc(O)cc2)CC1)Nc1cc(S(=O)(=O)N2CCCCC2)ccc1Cl	-6%
CCOc1ccc(C(=O)Nc2cccc(NC(=O)c3cccs3)c2)cc1[N+](=O)[O-]	-4%
Cc1ccccc1Nc1c(-c2cccnc2)nc2ccc(Br)cn12	-21%
CCN1CCN(C(=O)c2ccc3c(=O)n(Cc4ccccc4OC)c(=S)[nH]c3c2)CC1	12%
CCC(CC)c1nnc(NC(=O)c2ccc(N3CCCC3=O)cc2)s1	16%
O=C(CCCNC(=O)c1ccc(Cl)cc1)Nc1ccc(S(=O)(=O)Nc2ncccn2)cc1	?
COc1cccc(C(=O)NCC(=O)OCc2cc(=O)n3ccsc3n2)c1	1%
CCOC(=O)c1oc2ccccc2c1NC(=O)c1cccc(OC)c1	-1%
CN1CCN(c2ccc(CNS(=O)(=O)Cc3ccc(Cl)cc3)cc2)CC1	-5%
NS(=O)(=O)c1ccc(NC(=O)COc2ncnc3c2cnn3-c2ccccc2)cc1	-15%
Cc1cc(C)cc(NC(=O)c2cnn(-c3ccc(C)c(C)c3)c2C2CCNCC2)c1	-2%
CC(=O)n1cc(/C=N/NC(N)=S)c2ccccc21	6%
COCC(=O)N1CCCC(N(C)CCc2ccc(OC)c(OC)c2)C1 (stereo not given)	-17%
COc1ccccc1NC(=O)c1cnc(SC)nc1	-4%
Cc1ccc(C2(c3ccc(C)cc3)NC(=O)N(CC(=O)NCCCN3CCCC3=O)C2=O)cc1	2%
C=CCn1c(-c2cccs2)nc2ccccc21	4%
CCOC(=O)CN1C(=O)c2ccccc2Sc2ncccc21	-6%&5%
CC1CCCCC1NC(=O)c1cccc(S(=O)(=O)N2CCN(C)CC2)c1 (stereo not given)	6%
COc1ccc(-n2c(Cc3cccn3C)nnc2SCC(=O)Nc2cc(Cl)ccc2OC)cc1	2%
O=C1NC[C@H](Cc2ccc(O)cc2)N(CC2CCCCC2)C1=O	15%
O=C(CN1C(=O)C2C3CCC(C3)C2C1=O)N1CCN(Cc2ccccc2)CC1 (stereo not given)	-7%
Cn1c(=O)c(C(=O)CN2CCOCC2)c(N)n(Cc2ccccc2)c1=O	1%
CC1(C)CC(N(Cc2ccc(F)cc2)C(=O)c2ccc(F)cc2)CCO1 (stereo not given)	-3%
O=C(NCCS(=O)(=O)N1CCN(c2ccc(F)cc2)CC1)C1CC(=O)N(c2ccc(F)cc2)C1 (stereo not given)	13%
COc1ccc2[nH]c(C(O)(Cc3cccnc3)Cc3cccnc3)cc2c1	-10%
COc1ccccc1C(=O)NCCNC(=O)c1ccco1	4%

Grouped by structure, the entries above containing fluorine
SMILES	VDR inhibitor
CNCC(O)Cn1c(C(F)(F)F)nc2ccccc21 (stereo not given)	-9%
Cc1c2cnn(-c3ccccc3)c(=O)c2c(C)n1CCCC(=O)Nc1cccc(F)c1	13%
CCc1nn2c(=O)c(S(=O)(=O)Nc3ccc(Br)cc3F)c(C)nc2s1	0%
OC1(c2ccc(OC(F)F)cc2)CSC(=Nc2cccnc2)N1C1CC1 (stereo not given)	5%
CN(CC(=O)Nc1ccc(F)cc1)C(=O)COC(=O)c1cccc(N(C)C)c1	6%
CC(C)C(=O)N1CCC2(CC1)Oc1ccc(F)cc1C(=O)C21CC(c2ccccc2)=NO1 (stereo not given)	0%
O=C(Nc1ccccc1F)c1ccc(C(=O)c2ccccc2)cc1	-2%
Fc1ccc(-c2ccc(-c3nn4c(-c5ccco5)nnc4s3)o2)cc1	-5%
O=C(Nc1ccc(F)cc1)C1CCCN1S(=O)(=O)c1cccc2nsnc12 (stereo not given)	-15%
Cc1cc(C)n2nc(C(=O)OCC(=O)Nc3ccc4c(c3)OC(F)(F)O4)nc2n1	10%
Cc1ccc(NC(=O)CCN2C(=O)c3ccccc3S2(=O)=O)cc1F	-19%
CC1(C)CC(N(Cc2ccc(F)cc2)C(=O)c2ccc(F)cc2)CCO1 (stereo not given)	-3%
O=C(NCCS(=O)(=O)N1CCN(c2ccc(F)cc2)CC1)C1CC(=O)N(c2ccc(F)cc2)C1 (stereo not given)	13%

Screening results from PubChem BioAssay.
